Sfp PPTase inh – blocks B. subtilis Sfp PPTase activity; Q9F4F7; Biochemical Sfp PPTase activity, qHTS; Potency, µM, inactives show max response, negative = inhibition, hits mostly inhibitors; 310,000 tested, 3.5% active; AID 1490; active = well fitted inhibition curve with a large enough effect; inconclusive = small, poorly fitted or top-dose-only effect, or another doubt; inactive = no such curve, though single readings can be large or run the other way;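 also: the enzyme is Sfp with the accession as filed and its product quenches rhodamine fluorescence; potency is read from the fitted curve at half-maximal effect; 0% = enzyme reaction without inhibitor and -100% = no enzyme wells; top concentration of the series not given in the record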
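Reaction rates are the 30-min fluorescence difference (ex 525, em 598 nm) in wells containing 15 nM Sfp, 5 uM rhodamine-CoA and 12.5 uM BHQ-2-YbbR at pH 7.6 with 10 mM MgCl2.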
TRPML1 blocker – inhibitors of human TRPML1 channel; TRPML1-inducible cells, Ca2+ dye fluorescence, FDSS; stronger effect = lower value; inhibition of EC80 agonist-evoked calcium signal; activity change, negative = inhibition, % (no concentration beside the values); 390,000 tested, 0.02% active; in the data active means activity change below about -50%; inconclusive means about -30% to -50%; inactive means above about -30%;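 also: stimulus is agonist 54-4 at its EC80 concentration; % is scaled to controls: 0 for no effect and ±100 for the full control effect; compound concentration not given in the record; the text of the record puts the active cut at -80%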
Target sequence (Q9GZU1 whole entry, looked up): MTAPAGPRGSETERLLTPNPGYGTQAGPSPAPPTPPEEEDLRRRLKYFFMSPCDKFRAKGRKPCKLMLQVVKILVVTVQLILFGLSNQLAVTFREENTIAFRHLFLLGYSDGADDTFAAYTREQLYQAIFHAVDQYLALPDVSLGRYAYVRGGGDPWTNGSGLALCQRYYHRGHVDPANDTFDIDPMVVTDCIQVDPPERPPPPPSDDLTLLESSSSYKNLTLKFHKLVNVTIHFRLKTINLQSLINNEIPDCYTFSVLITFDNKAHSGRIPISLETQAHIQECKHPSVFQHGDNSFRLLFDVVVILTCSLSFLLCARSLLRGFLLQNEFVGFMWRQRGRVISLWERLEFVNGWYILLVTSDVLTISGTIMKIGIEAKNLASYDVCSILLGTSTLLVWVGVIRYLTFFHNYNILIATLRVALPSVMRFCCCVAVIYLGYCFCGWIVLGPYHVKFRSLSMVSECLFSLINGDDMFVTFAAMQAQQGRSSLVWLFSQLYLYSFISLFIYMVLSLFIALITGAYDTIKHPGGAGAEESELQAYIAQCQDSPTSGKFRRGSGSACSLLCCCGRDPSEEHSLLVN
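Calcium fluorescence in TRPML1-DL cells induced overnight with Tet: a 110 s read after compound pin addition, then a 110 s antagonist read after challenge with 54-4 at 4 uM final (EC80).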
TRPV1 potentiator – potentiators of human vanilloid receptor 1 (TRPV1). potentiation, % at 8.33 µM. TRPV1-expressing cells, Fluo-8 calcium influx, capsaicin EC20 potentiation; host cell line not named in the record; control for the full effect not named in the record. AID 540277. Q8NER1. 320,000 tested, 0.02% active; active means potentiation above 80%; inconclusive means 30% to 80%; inactive means below 30%; also: 0% is about no effect
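TRPV1-expressing cells were cultured overnight at 35.5C and loaded with Fluo-8 calcium dye for 40 to 90 min at room temperature. After a 10 s baseline, compound was added and calcium influx was read kinetically for 3 min (ex 480/em 520 nm).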
ClpP mod – qHTS Assay for Activators of ClpP | purified B. subtilis ClpP, FRET peptide cleavage, 20 min | Potency, µM (highest dose often 57.5 µM), without a hit: at the top dose activity change, negative = active | AID 651965, 2013 | 340,000 tested, 1.9% active | ATP-dependent Clp protease proteolytic subunit (Bacillus subtilis (strain 168)), P80244; active = well fitted falling curve with a large enough effect; inconclusive = small, poorly fitted or top-dose-only effect; inactive = no such curve, though single readings can be large or run the other way; also: potency is read from the fitted curve at half-maximal effect; the source files actives as falling curves though it sought activators and does not explain the sign; nearly all actives have a fitted effect of over 65% in size; many hits overshoot -100%
Target sequence (P80244 whole entry, looked up): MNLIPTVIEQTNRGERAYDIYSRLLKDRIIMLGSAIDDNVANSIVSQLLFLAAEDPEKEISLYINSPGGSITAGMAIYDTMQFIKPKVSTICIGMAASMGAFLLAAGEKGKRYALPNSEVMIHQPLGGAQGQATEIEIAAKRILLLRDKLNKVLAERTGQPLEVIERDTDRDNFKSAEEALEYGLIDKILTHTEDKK
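ClpP 10 microg/mL final, pH 8 Tris/KCl buffer with BSA, glycerol, Tween-20; compound pinned in; FRET-FV substrate; RT 20 min; Ex320/Em430; ΔFRET vs ADEP 5.8 microM, DMSO, no enzyme.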
PINK1 expr mod – changes PINK1 expression. AID 624263. Potency, µM (doses to about 76.6 µM), for inactives: top-dose activation (PINK1 increase), actives largely listed as activators. 410,000 tested, 0.2% active. PINK1 immunofluorescence, high-content cytometry, 24 h; active = well fitted activation curve with a large enough effect; inconclusive = small, poorly fitted or top-dose-only effect; inactive = flat fitted curve, though single readings scatter; cell line not stated here;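 also: potency is read from the fitted curve at half-maximal effect; % of control where 0% means no effect; nearly all actives have a fitted effect of over 65% in size; a mitochondrial uncoupler was the plate control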
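PINK1 protein level read as immunofluorescence by microplate cytometer in a fixed, stained stable cell line after 24 h exposure to five compound concentrations, with CCCP as control.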
Menin MLL FP FL – displaces fluorescein MLL peptide from human menin; Fluorescence polarization, fluorescein-MLL peptide displacement from menin; 290,000 tested, under 10 active; FP activity change, % at 61.4 µM; inconclusive = falling polarisation curve, or a change in total fluorescence; inactive = total fluorescence flat and polarisation flat or rising; no compound was filed as active; the % refers to the polarisation; negative = inhibition;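 also: % of control where 0% means no effect; inhibitors lower the polarisation; unlabelled MLL peptide was the positive control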
TRPML1 ag – human mucolipin-1 channel agonism; TRPML1-expressing cells, Ca2+ dye fluorescence, FDSS; host cell line not named in the record; reference of the full effect not given here; activation, % (test concentration not listed); 410,000 tested, 0.12% active; in the data active = activation above about 50%; inconclusive = about 30% to 50%; inactive = below about 30%; also: 0% is about no effect; the text of the record puts the active cut at 80%
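In this qHTS format, compounds were pin-transferred onto Ca8-dye-loaded TRPML1-DL cells induced with Tet overnight, and intracellular Ca2+ fluorescence was recorded kinetically for 110 s after a 10 s baseline. A subsequent 4uM final 54-4 (EC80) addition followed by a second 110 s read served as the antagonist phase.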
Active calls of the source: *; ? = inconclusive; / = not tested or not shown; & = joins results of further samples; [ ] = dose if it differs, or a comment.

SMILES	Sfp PPTase inh	TRPML1 blocker	TRPV1 potentiator	ClpP mod	PINK1 expr mod	Menin MLL FP FL	TRPML1 ag
CC(=O)Nc1cc[n+](C(C)C(=O)c2ccc(Br)cc2)cc1 (stereo not drawn)	12.6%	5.1	0.8	/	0.7%	0.0	-0.1
Cc1ccc(NC(=O)C2CSC3(C)CCC(=O)N23)cc1S(=O)(=O)N1CCCCCC1 (stereo not drawn)	/	32.3	1.1	-0.4%	0.8%	/	3.3
COc1ccccc1CNC(=O)c1ccccc1N	18.2%	-3.6	-0.3	10µM*	7.1%[38.3 µM]	3.4	0.1
CCCN1CCN(C(=O)c2ccc(F)c(S(=O)(=O)N3CCOCC3)c2)CC1	/	-11.9	-2.1	1.1%	0.7%	/	1.5
COc1cc(Cl)cc(/C=N\NC(=O)c2ccc3c(c2)OCO3)c1O	/	-17.4	/	-5.7%	16.2%	/	2.1
CC(=O)NCCc1nc2ccccc2n1Cc1ccc(C)cc1	2.8%	-12.0	-11.5	-1.7%	-0.1%	0.7	-0.4
O=C1CC(N2CCN(Cc3ccc4c(c3)OCO4)CC2)C(=O)N1c1cccc2ccccc12 (stereo not drawn)	18.8%	19.0	0.7	1.7%	2.7%	-3.0	-0.6
O=C(O)CC1S/C(=N/N=C/C=C/c2ccccc2)NC1=O (stereo not drawn)	-6.7%&-19.0%	-3.6&-2.1	2.8&-5.1	6.9%&-0.8%	-0.3%&5.7%	1.0&1.1	0.0&0.6
CCOc1ccc(N(CC(=O)N2CCCCC2)S(=O)(=O)c2ccc(Cl)cc2)cc1	-3.2%	16.9	-4.3	/	-0.4%	-5.4	1.4
O=C(C1CCC(CNc2c(N3CCCCC3)c(=O)c2=O)CC1)N1CCN(c2ccccn2)CC1 (stereo not drawn)	24.8%	-5.5	-10.5	-23.8%	0.2%	2.2	-0.1
CCOc1ccc(/C(C)=N/NC(=O)C(OC)c2ccccc2)cc1 (stereo not drawn)	5.4%	-12.9	-4.2	-0.9%	5.7%	0.4	1.4
C[C@H](O)[C@@H]1C(=O)N2CCc3ccc(N4CCN(C)CC4)cc3[C@@H]2C[C@@H]1N(C)C(=O)c1ccco1	/	-12.4	/	0.0%	0.9%	/	-0.2
COc1ccc(NC2CCCN(C(=O)c3ccccc3C(F)(F)F)C2)cc1 (stereo not drawn)	10.0%	-1.4	-15.6	0.4%	1.1%	3.3	0.3
COc1cc(OC)c(N2CC(C(=O)Nc3cc(Cl)ccc3N3CCOCC3)CC2=O)cc1Cl (stereo not drawn)	/	-7.1	-0.7	-4.9%	2.4%	/	2.6
N#CCCc1cccc(CCC#N)c1	4.2%	2.4	-8.6	-11.7%	0.1%	-2.0	-0.2
CC(C)Nc1cc(N2CCCC2)ccc1[N+](=O)[O-]	7.4%	69.9	-21.1	1.0%	/	1.5	3.1
O=C1Nc2ccccc2S/C1=C/c1cccs1	18.0%	12.5	-14.9	/	2.8%	0.0	-0.2
CC(C)c1ccc(NC(=O)C2CC2c2ccccc2)cc1 (stereo not drawn)	2.2%	6.6	4.3	-0.6%	5.1%	-0.7	4.1
N#Cc1c(NC(=S)NC(=O)Cc2cccs2)sc2c1CCCCC2	-2.3%	-9.3	6.5	-1.4%	3.1%[38.3 µM]	13.0	0.0
Cc1cc(C)n(CC(=O)NC2CCCCC2C)c(=O)c1C#N (stereo not drawn)	/	-11.0	2.4	/	1.5%	/	-0.6
COc1cccc(C(=O)NNC(=O)Cc2csc(N)n2)c1	56.2µM*	-12.0	2.6	/	3.1%	-2.4	-1.1
Ic1ccc(/C=C2\C=Cc3ccccc32)cc1	/	/	/	-0.3%	1.7%	/	-0.5
Cc1ccccc1C(=O)NNS(=O)(=O)c1ccc(F)cc1	/	12.0	/	-2.7%	0.9%	/	0.0
CCN(CC(=O)Nc1ccccc1C(F)(F)F)C(=O)Cc1cccs1	/	3.3	-0.7	0.9%	0.9%	/	-1.0
O=C(CCNC(=O)c1ccccc1)N/N=C/c1ccc([N+](=O)[O-])cc1	-1.0%	-8.6	0.7	/	1.6%	-4.4	0.0

Later entries:
SMILES	Sfp PPTase inh	TRPML1 blocker	TRPV1 potentiator	ClpP mod	PINK1 expr mod	Menin MLL FP FL	TRPML1 ag
O=C(O)CC(C(=O)O)n1nc(-c2ccccc2)cc1-c1ccccc1 (stereo not drawn)	22.7%	-4.6	6.9	-2.3%	-0.8%	0.5	1.0
Cc1ccccc1N=C1Nc2ccccc2N[C@]12C[C@H]1CCC(=O)N3CC[C@@H](C2)[C@@H]13	/	-8.3	/	1.7%	-0.4%	/	-0.7
COc1cccc(Cn2c(=O)c(-c3cccs3)nc3cnc(N(C)C)nc32)c1	37.9%[activator]	/	/	/	-0.5%	?	/
O=C(NCc1ccccn1)c1n[nH]c2ccccc12	4.2%	-8.4	-1.0	?	0.1%	-2.3	-0.1
COc1ccc(C(=O)Cn2nnc(-c3ccccc3NC(=O)C3CCCCC3)n2)cc1	6.0%	25.6	2.1	1.0%	-2.1%	?	7.6
C[C@@H]1CN([C@H](C)CO)S(=O)(=O)c2ccc(Br)cc2O[C@H]1CN(C)C(=O)C1CCCCC1	/	-9.0	/	2.6%	3.0%	/	0.3
Cc1ccc(C)c(N(CC(=O)NC2CCCC2)C(=O)c2oc(C(C)(C)C)cc2C)c1	13.1%	24.1	-16.5	0.0%	-2.9%[38.3 µM]	2.9	13.6
CCOC(=O)C1(Cc2ccccc2)C(=O)N(CCCN(C)C)c2ccccc21 (stereo not drawn)	/	-16.8	/	/	-1.0%	/	0.3
Cc1cn(Cc2ccccc2Cn2cc(C)c(=O)[nH]c2=O)c(=O)[nH]c1=O	5.3%	5.1	-7.5	/	2.3%	0.0	0.3
CCc1ccc(Cn2c(CNS(=O)(=O)c3ccc(Cl)s3)nc3cccnc32)cc1	/	16.7	/	-0.3%	3.5%	/	3.1
COc1cc(NC(=O)CSc2nnc(NC(C)C)s2)cc(OC)c1OC	10.7%	-24.6	-2.2	/	-1.1%	3.6	-0.3
COc1ccc(-c2cc(C(F)(F)F)nc(-n3cncn3)n2)cc1	4.7%	-19.3	1.4	20µM*	-1.2%	3.8	0.1
COC(=O)N1CCC2(CC1)CCN(c1ccccc1)CC2	7.9%	/	/	/	0.3%	0.2	/
Cc1ccc2c(c1)nnn2C1CCN(CC(=O)Nc2ccc(F)cc2)CC1	2.2%	39.5	8.9	/	5.8%	-1.5	1.5
Cc1noc(C)c1COC(=O)Cc1ccc(Br)cc1	-7.5%	-13.2	-0.3	0.1%	8.9%	0.6	-0.8
O=C(/C=C/c1ccc([N+](=O)[O-])cc1)NCCN1C(=O)S/C(=C\c2ccc(F)cc2)C1=O	17.6%	15.4	-8.4	-8.7%	3.8%	4.0	0.0
CC(=O)Nc1cc(C(=O)NCCN2CCN(Cc3ccccc3)CC2)ccc1Sc1ccc(C)cc1	16.6%	2.3	6.1	/	-0.6%	-0.6	-0.6
COc1ccc(NC(=O)Cn2c(C)cc(=O)c3cccc(OC)c32)cc1	20.8%	-5.6	7.2	-19.7%	3.8%	1.0	2.2
O=C1CC(N2CCN(c3nc4ccccc4s3)CC2)C(=O)N1c1cccc(F)c1 (stereo not drawn)	-3.1%	-0.4	4.6	0.8%	5.1%[38.3 µM]	3.6	0.3
O=S(=O)(NCc1ccccn1)c1cc(C(F)(F)F)ccc1Cl	-11.5%	-23.9	11.9	2.3%	0.2%	-1.6	1.2
CC(/C=C1\NC(=S)NC1=O)=C\c1ccccc1	3.3%	-27.0	-11.0	1.3%	-1.4%	3.8	2.9
CCCC1C2C(=O)N(c3ccccc3OCC)C(=O)C2ON1c1ccccc1 (stereo not drawn)	-6.5%	1.0	-12.8	-0.8%	-1.0%	1.3	-0.1
O=CN1CCN(c2ncnc3c2nnn3Cc2c(F)cccc2Cl)CC1	2.9%	8.8	-21.8	/	-0.7%	-4.7	-0.8
Cc1ccc(C)c(NC(=O)CN(C)C(=O)CCN2C(=O)c3ccccc3C2=O)c1	-1.0%	11.8	7.1	0.3%	1.1%	-2.2	-0.9
CCOC(=O)N1C(C)CN(/[N+]([O-])=N/Oc2ccc([N+](=O)[O-])cc2[N+](=O)[O-])CC1C (stereo not drawn)	7.5%	87.1	/	/	/	3.3	0.6

The results go on.
SMILES	Sfp PPTase inh	TRPML1 blocker	TRPV1 potentiator	ClpP mod	PINK1 expr mod	Menin MLL FP FL	TRPML1 ag
O=C(COC(=O)C1=Cc2ccccc2OC1)NC1CCCC1	-7.5%	5.7	-0.3	-2.3%	1.8%[38.3 µM]	-0.4	0.2
CCN(CC(=O)NCc1ccc(Cl)cc1)C(=O)c1sccc1C	/	-2.5	/	0.4%	1.8%	/	0.5
CCN(CC)c1ccc(/C=N/NC(=O)C2CC2)cc1	7.3%	-3.6	-20.8	4.2%	2.6%	-0.3	-0.8
O=C1OC(Nc2ccc(Cl)cn2)c2ccccc21 (stereo not drawn)	9.8%	-10.8	-8.1	-5.3%	-3.4%	0.5	-0.5
C[C@H]1CN([C@@H](C)CO)C(=O)c2cc(C#Cc3cccnc3)cnc2O[C@H]1CN(C)Cc1ccc(F)cc1	/	9.7	/	-7.5%	0.5%	/	-0.3
Cc1sc2ncnc(N/N=C/c3ccc(O)cc3)c2c1C	-8.6%	24.3	-18.2	-2.9%	-0.5%	0.7	5.4
CC(C)(C)C(=O)COC(=O)c1cc2ccccc2cc1O	14.2%	10.2	4.8	-2.6%	5.5%	-0.7	0.3
COc1cc(C2C(C#N)=C(N)Oc3cc(N)ccc32)cc(OC)c1OC (stereo not drawn)	-14.6%	30.5	-7.5	-0.6%	18.0%	5.5	-0.1
O=C(CN(C1CCCCC1)C1CCCCC1)N1CCc2ccccc2C1	-19.8%	-8.3	-9.7	-0.7%	?	-2.8	0.0
O=C(c1cc(F)ccc1F)C1CCCN(C(=O)c2ccc3nccnc3c2)C1 (stereo not drawn)	5.8%	3.0	10.1	0.1%	1.1%	-1.8	1.2
Cc1ccc(CN2C(=O)C(Cc3ccccc3)Nc3ncnc(N4CCCCC4)c32)cc1 (stereo not drawn)	/	-11.9&13.0	-16.4	-1.9%&-2.6%	3.9%&1.4%	/	-0.4&-0.1
O=C(NCC(=O)N1CCOCC1)c1ccccc1	7.8%	-6.3	0.9	/	-1.3%	0.2	0.4
O=C(NCc1ccco1)/C(=C/c1ccco1)NC(=O)c1ccccc1	-7.6%	-8.4	-2.4	/	1.6%	7.0	-0.1

Screens as filed in PubChem.
